# Assay outcomes as filed in PubChem BioAssay.
# Vaccinia inh: blocks a specific stage of Vaccinia orthopoxvirus infection; Vaccinia-infected cells, mCherry/Venus stage reporter fluorescence; hits give low values; some inactives read as strong as hits; activity change (mCherry), % (concentration not given with the values); 89,000 compounds, 0.01% hits; AID 1053133;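 active = mCherry past -33% and 40 or more points under the early reporter, replicates agreeing; inconclusive = past -33% without that gap or agreement; tested in A549 cells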;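 note: scaled between vehicle wells and reference inhibitor wells; 23 nL library stock went into each well; one replicate is shown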
# Vaccinia inh Venus: second read-out of Vaccinia inh, no call of its own (marks repeat the call); activity change (Venus), %; measured here: Venus reporter, other viral stage;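 negative = less Venus signal; first of two replicates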
# * = called active by the depositor; ? = inconclusive; · = no result given; & = joins results of further samples. Some of the compounds tested (hit frequency here may not be typical).
SMILES,Vaccinia inh,Vaccinia inh Venus
C[C@@H]1CN([C@H](C)CO)C(=O)Cc2cc(NC(=O)Nc3ccccc3)ccc2O[C@@H]1CN(C)S(=O)(=O)c1ccc(F)cc1,-18.1,-13.4
Cc1ccc(S(=O)(=O)N2CC[C@@H]3[C@@H](CO)Nc4ccc(Br)cc4[C@@H]32)cc1,-7.9,-13.2
C[C@@H]1CN([C@@H](C)CO)S(=O)(=O)c2ccc(C3=CCCCC3)cc2O[C@@H]1CN(C)C(=O)C1CCCCC1,?,·
CCCNC(=O)NC[C@@H]1[C@H](c2ccc(C3=CCCCC3)cc2)[C@@H](CO)N1C(C)=O,-24.1,-16.6
COc1ccc2c3c([nH]c2c1)[C@@H](CO)N(C(=O)Nc1ccc(F)cc1)CC31CN(C(=O)c2ccccc2F)C1,?,·
O=C(C[C@H]1C[C@@H]2c3cc(NC(=O)NC4CCCC4)ccc3O[C@@H]2[C@H](CO)O1)NCc1ccc(-c2ccccc2)cc1,12.7,5.3
CO[C@@H]1CN(C)C(=O)c2ccc(NC(=O)Cc3ccccc3)cc2OC[C@H](C)NC[C@@H]1C,-0.8,-1.2
CCCN1[C@H](CO)[C@H](c2ccc(C3=CCCC3)cc2)[C@H]1CNC(=O)NC(C)C,-16.8,-11.4
C[C@@H]1CN([C@H](C)CO)C(=O)c2cc(Br)cnc2O[C@H]1CN(C)Cc1cccc(F)c1,11.0,2.0
CN1C(=O)c2cc(NS(=O)(=O)c3cccc(F)c3)ccc2OC[C@H]2O[C@H](CC(=O)N3CCc4ccccc4C3)CC[C@H]21,-6.5,-0.9
CCC(=O)N(C)C[C@H]1Oc2cc(-c3cccnc3)ccc2S(=O)(=O)N([C@@H](C)CO)C[C@H]1C,14.5,6.2
Cc1ccc(S(=O)(=O)Nc2ccc3c(c2)C(=O)N([C@@H](C)CO)C[C@H](C)[C@@H](CN(C)CC2CC2)O3)cc1,18.1,6.8
COc1ccc(NC(=O)N(C)C[C@H]2Oc3ncc(C#C[C@@H](C)O)cc3C(=O)N([C@@H](C)CO)C[C@@H]2C)cc1,22.8,18.5
COc1ccccc1CN1[C@@H](CO)[C@@H]2c3ccccc3N(C(=O)C3CCCC3)C[C@@H]21,-12.0,-5.0
C[C@H](CO)N1C[C@H](C)[C@@H](CN(C)C(=O)Nc2cccc(F)c2)Oc2cc(C#CC3(O)CCCC3)ccc2S1(=O)=O,-13.1,-8.2
C[C@@H]1CN([C@H](C)CO)C(=O)CCCn2nncc2CO[C@@H]1CN(C)Cc1ccc(C(F)(F)F)cc1,-23.3,-15.5
O=C(C[C@@H]1CC[C@H](NC(=O)NC2CCCCC2)[C@H](CO)O1)NCc1ccccc1,19.1,25.3
O=C(C[C@H]1C[C@H]2c3cc(NC(=O)NC4CCCC4)ccc3O[C@H]2[C@H](CO)O1)NCc1ccc(Cl)cc1,2.6,3.7
O=C(N[C@@H]1CC[C@H](CCNC(=O)c2ccccc2F)O[C@H]1CO)c1ccc2c(c1)OCO2,8.8,13.1
N#C[C@@H]1[C@H](c2ccc(-c3cccc(F)c3)cc2)[C@H](CO)N1S(=O)(=O)c1cccc(F)c1,?,·
C[C@H](CO)N1C[C@H](C)[C@@H](CN(C)C(=O)Nc2ccc(F)cc2)Oc2ccc(NC(=O)CCCCCC(=O)Nc3ccccc3N)cc2C1=O,6.1,2.0
C[C@H](CO)N1C[C@H](C)[C@@H](CN(C)C(=O)Nc2ccc3c(c2)OCO3)Oc2c(NC(=O)Nc3ccc(F)cc3)cccc2C1=O,5.6,6.2
CCC(=O)N1CCC2(CC1)CN(CC1CCOCC1)[C@@H](CO)c1c2c2ccc(OC)cc2n1C,20.4,27.4
CO[C@H]1CN(C)C(=O)c2ccc(NS(C)(=O)=O)cc2OC[C@H](C)N(C(=O)CN(C)C)C[C@H]1C,-4.6,-5.8
CNC[C@H]1OCCCC[C@H](C)Oc2ccc(NC(=O)Nc3ccc(F)cc3)cc2C(=O)N([C@H](C)CO)C[C@@H]1C,1.8,1.4

# More records
SMILES,Vaccinia inh,Vaccinia inh Venus
CC(C)NC(=O)N1[C@@H](C#N)[C@H](c2ccc(C#CC3CCCC3)cc2)[C@@H]1CO,-26.3,-4.8
COc1ccc2c3c(n(C)c2c1)[C@@H](CO)N(CC1CCCC1)CC31CCN(Cc2nccs2)CC1,-9.8,-7.1
O=C(c1ccccc1F)N1CC(=O)N2[C@H](CO)[C@@H](c3ccc(C#Cc4ccccc4)cc3)[C@H]2C1,-28.1,-20.8
Cc1ccc(S(=O)(=O)Nc2ccc3c(c2)CC(=O)N([C@@H](C)CO)C[C@H](C)[C@@H](CN(C)Cc2ccc(-c4ccccc4)cc2)O3)cc1,?,·
Cc1ccc(S(=O)(=O)N[C@@H]2CC[C@H](CC(=O)NCCc3ccncc3)O[C@@H]2CO)cc1,17.2,10.2
COCC(=O)N1[C@@H](CO)[C@H](c2ccccc2)C12CN(C(=O)c1ccc(F)cc1)C2,6.1,9.3
Cc1noc(C)c1NC(=O)N(C)C[C@@H]1OCCCC[C@@H](C)Oc2ccc(NS(=O)(=O)c3c(C)noc3C)cc2C(=O)N([C@@H](C)CO)C[C@H]1C,22.8,13.3
CC(C)NC(=O)N(C)C[C@H]1Oc2cc(-c3ccccc3)ccc2S(=O)(=O)N([C@H](C)CO)C[C@@H]1C,-0.5,0.4
O=C(CC(F)(F)F)N1C[C@H]2[C@@H](c3ccccc31)[C@@H](CO)N2C(=O)c1ccncc1,5.0,1.8
Cc1noc(C)c1S(=O)(=O)N(C)C[C@@H]1Oc2c(cccc2N(C)C)C(=O)N([C@H](C)CO)C[C@H]1C,10.4,4.8
CC(=O)N1CC(=O)N2[C@H](CO)[C@@H](c3ccc(-c4ccc(C#N)cc4)cc3)[C@H]2C1,3.2,-1.3
C[C@H](CO)N1C[C@H](C)[C@@H](CN(C)C(=O)Cc2ccccc2)OCCCC[C@H](C)Oc2ccc(NC(=O)Cc3ccccc3)cc2C1=O,-3.1,0.8
COc1ccc(S(=O)(=O)Nc2ccc3c(c2)C(=O)N([C@@H](C)CO)C[C@@H](C)[C@@H](CN(C)S(=O)(=O)c2cn(C)cn2)O3)cc1,-4.3,8.3
CCCNC(=O)N(C)C[C@@H]1Oc2cc(C#C[C@H](C)O)ccc2S(=O)(=O)N([C@H](C)CO)C[C@H]1C,16.3&15.3,3.8&9.7
Cc1noc(C)c1S(=O)(=O)Nc1ccc2c(c1)C(=O)N([C@H](C)CO)C[C@@H](C)[C@H](CN(C)C(=O)Nc1ccc3c(c1)OCO3)OCCCC[C@@H](C)O2,-12.0,-3.2
CC(=O)NC[C@H]1[C@@H](c2ccc(-c3cccc(F)c3)cc2)[C@H](CO)N1C(C)=O,11.0,12.2
C[C@H](CO)N1C[C@H](C)[C@@H](CN(C)Cc2ccncc2)Oc2ccc(NC(=O)Cn3cnnn3)cc2CC1=O,7.5,0.7
C[C@@H]1CN([C@@H](C)CO)S(=O)(=O)c2ccc(-c3ccccc3F)cc2O[C@H]1CN(C)S(C)(=O)=O,-14.1,-15.4
C[C@H]1CN([C@@H](C)CO)C(=O)c2cc(NC(=O)C3CC3)ccc2O[C@H]1CN(C)S(=O)(=O)c1ccc(Cl)cc1,5.4,11.3
COc1ccc(NC(=O)N[C@@H]2CC[C@H](CCNS(=O)(=O)c3cccc(Cl)c3)O[C@@H]2CO)cc1,-1.9,4.7
C[C@H]1CCCCO[C@@H](CN(C)Cc2ccc3c(c2)OCO3)[C@@H](C)CN([C@@H](C)CO)C(=O)c2cc(NC(=O)c3ccncc3)ccc2O1,?,·
CCCNC(=O)N1CC(=O)N2[C@H](CO)[C@@H](c3ccc(C#Cc4cccc(F)c4)cc3)[C@H]2C1,?,·
C/C=C/c1ccc([C@H]2[C@@H](C#N)N(c3nc(CC)cs3)[C@@H]2CO)cc1,-12.6,-9.3
Cc1ccc(S(=O)(=O)N(C)C[C@@H]2Oc3c(cccc3N(C)C)C(=O)N([C@H](C)CO)C[C@H]2C)cc1,-0.3,-2.3
COc1ccc(S(=O)(=O)Nc2cccc3c2O[C@H](CN(C)S(=O)(=O)c2ccc(OC)cc2)[C@H](C)CN([C@H](C)CO)C3=O)cc1,-2.5,-2.4

# Going on with the list:
# Below each SMILES – Vaccinia inh	Vaccinia inh Venus
- O=C(NCC1CC1)[C@H]1[C@H](CO)[C@H]2Cn3c(cccc3=O)[C@@H]1N2CCc1ccccc1
→ 17.6	10.5
- CN(C)CC(=O)N[C@H]1CC[C@@H](CC(=O)NCc2ccccc2F)O[C@H]1CO
→ 9.7	10.4
- C[C@H]1CN([C@@H](C)CO)C(=O)Cc2cc(NS(C)(=O)=O)ccc2O[C@H]1CN(C)S(=O)(=O)c1cccs1
→ 7.1	2.4
- C[C@@H]1CCCCO[C@H](CN(C)S(=O)(=O)c2ccc(Cl)cc2)[C@H](C)CN([C@@H](C)CO)C(=O)c2cc(N(C)C)ccc2O1
→ -17.1	-13.6
- CC(C)NC(=O)Nc1ccc2c(c1)C(=O)N([C@H](C)CO)C[C@H](C)[C@H](CN(C)Cc1ccncc1)O2
→ 3.5	1.8
- CC(=O)N(C)C[C@@H]1Oc2ncc(-c3cncnc3)cc2C(=O)N([C@H](C)CO)C[C@@H]1C
→ 11.9	9.6
- O=C(Nc1cccc(Cl)c1)N1C[C@@H]2[C@H](c3ccccc31)[C@H](CO)N2C(=O)c1ccncc1
→ 3.2	5.1
- O=C(NC[C@H]1N[C@H](CO)[C@@H]1c1ccc(C2=CCCCC2)cc1)C1CCCC1
→ -17.6	-3.3
- C[C@H]1CN([C@@H](C)CO)C(=O)CCCn2nncc2CO[C@@H]1CN(C)S(=O)(=O)c1cn(C)cn1
→ 4.7	8.0
- C[C@@H]1CN([C@H](C)CO)C(=O)c2cc(C#CC3CCCC3)cnc2O[C@H]1CN(C)Cc1ccncc1
→ -13.8	-16.1
- CCNC(=O)C[C@H]1CC[C@@H]2[C@H](COc3ccc(NC(=O)C4CCOCC4)cc3C(=O)N2C)O1
→ 6.0	3.3
- O=C1O[C@H](c2ccccc2)[C@H](c2ccccc2)N2[C@H]1[C@@H](C(=O)N1CCN(c3ncccn3)CC1)[C@]1(C(=O)Nc3ccc(C#CCCO)cc31)[C@H]2c1ccc(OCCO)cc1
→ 10.7	4.4
- O=C(C[C@H]1CC[C@@H]2[C@H](COC[C@H](O)CN2Cc2ccccc2)O1)NCCc1ccccc1
→ -12.5	-1.1
- Cn1cnc(S(=O)(=O)N2CCCCN3[C@H](C2)[C@@H](c2ccc(C#CC4CC4)cc2)[C@@H]3CO)c1
→ -4.5	-12.7
- C[C@H]1CN([C@@H](C)CO)C(=O)c2cccc(NS(C)(=O)=O)c2O[C@H]1CN(C)Cc1ccccc1
→ 17.3	15.5

# (listing goes on)
# Below each SMILES – Vaccinia inh	Vaccinia inh Venus
- O=C(c1ccncc1)N1CC(=O)N2[C@@H](CO)[C@@H](c3ccc(-c4ccccc4)cc3)[C@@H]2C1
→ 3.3	5.2
- CC(C)Cc1ccc(CN2CC[C@@H](NS(=O)(=O)c3ccccc3)C2)cc1
→ -24.9	-23.2
- COc1cccc(NC(=O)N2CC3(C2)[C@H](c2ccccc2)[C@@H](CO)N3C(=O)C2CC2)c1
→ 18.2	23.3
- CC1C=NC(S(=O)(=O)N2CC[C@@H]3[C@@H](CO)N(C)c4ccc(-c5ccccc5)cc4[C@@H]32)=N1 (some centres undefined)
→ -17.9	-19.1
- C[C@H](CO)N1C[C@H](C)[C@H](CN(C)C(=O)c2ccccc2)Oc2ncc(C3=CCCC3)cc2C1=O
→ -4.7	-8.3
- CO[C@@H]1CN(C)C(=O)c2cc(NC(=O)c3ccc(F)cc3)ccc2OC[C@@H](C)N(C(=O)CN(C)C)C[C@H]1C
→ 2.5	-3.2
- CCCC#Cc1ccc([C@H]2[C@H](CO)N3CCCCN(Cc4ccncc4)C[C@@H]23)cc1
→ -20.9	-4.8
- O=C(N[C@H]1CC[C@@H](CCNS(=O)(=O)c2ccc(F)cc2)O[C@H]1CO)c1cccc(F)c1
→ -8.7	-2.2
- O=C(Cc1ccccc1)N1C[C@H]2[C@@H](c3ccccc31)[C@@H](CO)N2S(=O)(=O)c1ccccc1
→ -15.3	-14.3
- O=C(c1cccc(F)c1)N1CC2(C1)[C@@H](c1ccccc1)[C@@H](CO)N2C(=O)C1CCCCC1
→ 4.2	10.7
- CN1C(=O)c2cc(NC(=O)C3CC3)ccc2OC[C@H]2O[C@H](CC(=O)NCC3CCCCC3)CC[C@H]21
→ 3.1	6.3
- CC(C)NC(=O)N[C@@H]1CC[C@@H](CC(=O)NC2Cc3ccccc3C2)O[C@H]1CO
→ 3.0	0.8
- CO[C@H]1CN(C)C(=O)c2ccc(NS(=O)(=O)c3ccc(Cl)cc3)cc2OC[C@H](C)N(C(=O)NC(C)C)C[C@H]1C
→ -2.3	-1.2

# 7 neighbouring records out of the list so far, for reference:
# Below each SMILES – Vaccinia inh	Vaccinia inh Venus
- O=C(c1ccncc1)N1CC(=O)N2[C@@H](CO)[C@@H](c3ccc(-c4ccccc4)cc3)[C@@H]2C1
→ 3.3	5.2
- CC(C)Cc1ccc(CN2CC[C@@H](NS(=O)(=O)c3ccccc3)C2)cc1
→ -24.9	-23.2
- COc1cccc(NC(=O)N2CC3(C2)[C@H](c2ccccc2)[C@@H](CO)N3C(=O)C2CC2)c1
→ 18.2	23.3
- CC1C=NC(S(=O)(=O)N2CC[C@@H]3[C@@H](CO)N(C)c4ccc(-c5ccccc5)cc4[C@@H]32)=N1 (some centres undefined)
→ -17.9	-19.1
- C[C@H](CO)N1C[C@H](C)[C@H](CN(C)C(=O)c2ccccc2)Oc2ncc(C3=CCCC3)cc2C1=O
→ -4.7	-8.3
- CO[C@@H]1CN(C)C(=O)c2cc(NC(=O)c3ccc(F)cc3)ccc2OC[C@@H](C)N(C(=O)CN(C)C)C[C@H]1C
→ 2.5	-3.2
- CCCC#Cc1ccc([C@H]2[C@H](CO)N3CCCCN(Cc4ccncc4)C[C@@H]23)cc1
→ -20.9	-4.8
